# INS promoter inh = TRM-6 insulin promoter activity inhibition. TRM-6 cells (human fetal islet line), insulin promoter-eGFP reporter, imaging; reporter expression induced with tamoxifen. inhibition, % at 2 µM. hit rate 0.9% among 130,000. AID 1273;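 active = inhibition above the mean plus 3 SD, with well images judged a real hit on visual review, cut at about 60% in these data, passing the limit was not always enough; inconclusive = inhibition over the cutoff but images rejected on review; inactive = inhibition not above the cutoff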
# RGS16-Gao = modulates binding between human RGS16 and Galphao | O15492+P09471 | bead-based flow cytometry RGS16-Galphao binding, fluorescence; actives lie on both sides | binding response (% of control), % at 10 µM | hit rate 0.38% among 220,000;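 active = below 25% or above 175%, edge rows of some plates excepted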;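 note: Galphao activated by GDP with aluminum fluoride before binding; 100% = wells without compound and 0% = beads without RGS; some results beyond the cut were filed as inactive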
# Target sequence (O15492 whole entry, looked up): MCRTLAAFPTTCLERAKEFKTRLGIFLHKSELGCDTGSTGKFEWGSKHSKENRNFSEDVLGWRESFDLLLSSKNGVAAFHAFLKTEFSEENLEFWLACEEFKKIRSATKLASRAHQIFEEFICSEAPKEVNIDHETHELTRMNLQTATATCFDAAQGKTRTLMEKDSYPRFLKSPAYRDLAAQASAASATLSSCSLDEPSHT
# Target sequence (P09471 whole entry, looked up): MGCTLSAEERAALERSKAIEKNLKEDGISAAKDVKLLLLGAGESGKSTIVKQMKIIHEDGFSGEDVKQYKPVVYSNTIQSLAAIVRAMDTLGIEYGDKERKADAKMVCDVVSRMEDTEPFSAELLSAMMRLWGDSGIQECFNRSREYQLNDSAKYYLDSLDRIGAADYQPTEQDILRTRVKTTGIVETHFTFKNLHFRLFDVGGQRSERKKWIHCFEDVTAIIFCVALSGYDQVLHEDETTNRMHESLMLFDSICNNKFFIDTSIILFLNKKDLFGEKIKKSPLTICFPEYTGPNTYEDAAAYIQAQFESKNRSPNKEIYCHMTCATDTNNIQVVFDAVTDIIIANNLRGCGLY
# PKD1 inh = inhibitors of human PKD1 kinase; Q15139; PKD1 kinase fluorescence polarization assay; inhibition, %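 (about 10 µM by stock and volumes)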; hit rate 0.056% among 200,000; AID 797;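 active = inhibition of 50% or more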;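 note: controls were vehicle for no effect and a reference inhibitor for full effect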
# GALR2 agonist = agonists of human galanin receptor 2 (GALR2); GALR2-expressing cells, agonist activation read-out; hit rate 0.48% among 140,000; activation, %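 (tested at 5 µM)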; O43603;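 active = above mean plus 3 SD of all compounds, about 5% in these data, not always enough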;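 note: 0% = vehicle buffer wells and 100% = reference agonist at full effect; tested in CHO reporter cells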
# Target sequence (O43603 whole entry, looked up): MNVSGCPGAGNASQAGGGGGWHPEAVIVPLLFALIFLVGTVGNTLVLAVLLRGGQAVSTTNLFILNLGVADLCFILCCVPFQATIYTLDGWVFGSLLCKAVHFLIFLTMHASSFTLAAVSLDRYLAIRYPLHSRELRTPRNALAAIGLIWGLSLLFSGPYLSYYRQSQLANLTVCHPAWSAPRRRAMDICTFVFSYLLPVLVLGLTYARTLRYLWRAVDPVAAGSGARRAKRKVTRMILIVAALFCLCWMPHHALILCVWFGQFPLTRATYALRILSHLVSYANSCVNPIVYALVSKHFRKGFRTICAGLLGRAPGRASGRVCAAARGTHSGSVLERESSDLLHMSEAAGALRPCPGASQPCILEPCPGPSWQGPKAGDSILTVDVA
# HSV augment = HSV replication enhancement. hit rate 0.005% among 220,000. AID 1956. maximum fold increase. HSV replication augmentation in cells, fold increase;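 active = peak rise of 1.5-fold or more in the series; inconclusive = self-fluorescent or not available for retest; tested in PC3 cells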;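 note: first round at 10 µM; read as green reporter fluorescence; hits show the peak of a series up to 25 µM; 1 = signal of infected wells without compound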
# INS promoter inh cell count = second read-out of INS promoter inh, no call of its own (marks repeat the call); normalized cell count, %; measured here: cell count, toxicity; reference of the scale not given here;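 cells exposed to compound for 48 h; stained nuclei by imaging scaled within each plate; lower means fewer cells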
# HSV augment primary fold = further read-out of HSV augment, marked with its call; fold increase; compound at 10 µM; measured here: primary screen fold increase 10 uM; tested in PC3 cells;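 GFP signal in the first replicate; 1 = infected wells without compound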
# Starred values were filed as active, the others as inactive; i = inactive; ? = inconclusive; . = no result given.
mol	INS promoter inh	GALR2 agonist	PKD1 inh	INS promoter inh cell count	HSV augment primary fold	HSV augment	RGS16-Gao
Fc1ccc2nc(Nc3nc4c(F)cc(F)cc4s3)sc2c1	.	-1.0	-7	.	0.9	i	95
CCC(=O)NC(NC(=S)Nc1c(C)n(C)n(-c2ccccc2)c1=O)C(Cl)(Cl)Cl (centres undefined)	.	-0.1	-10	.	1	i	102
Nc1nc(-c2ccco2)nn1C(=O)c1ccc([N+](=O)[O-])cc1	.	.	9	.	0.94	i	94
CCN(CC)S(=O)(=O)c1csc(C(=O)NCc2ccccc2)c1	-36	-0.6	2	41	0.72	i	75
CCOc1ccc(S(=O)(=O)Nc2nc3ccccc3nc2-n2ccc(=NC(=O)c3ccccc3C)cc2)cc1	.	.	.	.	1	i	101
c1ccc2c(Nc3ccc4c(c3)OCCO4)c3c(nc2c1)CCCC3	.	.	1	.	0.71	i	101
O=C(Nc1ccccc1)C(=O)Nc1ccccn1	10	-1.7	-3	133	1.1	i	110
CC(=O)c1cccc(NC(=O)N2CCCC2C(=O)Nc2cc(C)ccc2C)c1 (centres undefined)	25	1.0	-1	127	0.95	i	86
CCc1c(C(=O)Nc2ccccc2)c(C)[nH]c(=S)c1C#N	-3	-2.3	-3	175	0.89	i	-59*
CCOc1ccc(/C=N/NC(=O)c2ccccc2NC(=O)c2ccc(OC)cc2)cc1	25	-1.2	-3	125	0.89	i	72
Cc1ccccc1-c1noc(-c2ccccc2F)n1	33	-1.2	-2	141	0.9	i	104
CCOc1ccccc1Oc1c(C)oc2cc(OC(=O)c3ccco3)ccc2c1=O	-17	-1.6	1	77	0.89	i	106
Cc1cc(O)c(/C=N/c2ccccn2)c(=O)o1	.	-2.0	-12	.	.	?	122
O=C(CSc1c2c(nc3cc(Cl)ccc13)CCCC2)NCCN1CCOCC1	36	.	3	103	0.79	i	97
CCOc1ccc2[nH]c(=O)c(CN(Cc3cccs3)Cc3nnnn3C(C)(C)C)cc2c1	.	0.1	16	.	0.7	i	109
CS(=O)(=O)N(CC(=O)NCCSCc1ccco1)c1ccc(Cl)cc1	.	.	-7	.	1	i	105
CCOc1ccc2nc(Cl)c(C3CC(c4ccccc4)=NN3C(=O)c3ccco3)cc2c1 (centres undefined)	-19	0.5	-4	136	1	i	106
CC(=O)Oc1ccc(N2C(=O)C3C4C=CC(O4)C3C2=O)cc1 (centres undefined)	-11	-1.9	7	70	0.79	i	85
CS(=O)(=O)N(CC(=O)NC1CCCCCC1)Cc1ccc(Cl)cc1	-73	-0.5	1	63	0.98	i	100
COCCn1c(N)c(C(=O)NCc2cccs2)c2nc3ccccc3nc21	31	11*	11	64	0.89	i	122
O=C(NC1CCN(Cc2nnnn2CCc2ccccc2)CC1)c1ccccc1F	33	1.1	-2	64	0.85	i	93
c1ccc(COn2c(-c3ccccc3)nc3c2CCc2nonc2-3)cc1	46	-1.6	11	208	0.9	i	102
CC12CN3CC(C)(CN(C1)C3c1ccc(Br)cc1)C2 (centres undefined)	36	1.1	-5	116	0.95	i	97
CN(Cc1nc2ccccc2n1C)C(=O)c1cccs1	-21	2.0	-10	131	0.87	i	103
CN(C)CCCCOc1cccc(Br)c1	32	-1.1	-3	95	0.99	i	100
O=c1c(Cc2ccc(Cl)cc2)c(O)ccn1Cc1ccccc1	17	-0.8	0	85	0.88	i	103
Cc1noc(COc2ccccc2OCC(O)CNC(C)(C)C)n1 (centres undefined)	-47	-1.1	-1	127	0.93	i	99
CCc1nc(Nc2ccc(N3CCN(C(C)=O)CC3)cc2)c2oc3ccccc3c2n1	.	-0.7	8	.	0.77	i	98
c1ccc2c(c1)CCCC2NC1=NCCC1 (centres undefined)	-18	-1.3	-4	100	1	i	106
Cc1cccc(N(CC(=O)NCCSCc2ccccc2)S(C)(=O)=O)c1C	.	.	-2	.	0.99	i	105

# In the list so far, two contain bromine.
mol	INS promoter inh	GALR2 agonist	PKD1 inh	INS promoter inh cell count	HSV augment primary fold	HSV augment	RGS16-Gao
CC12CN3CC(C)(CN(C1)C3c1ccc(Br)cc1)C2 (centres undefined)	36	1.1	-5	116	0.95	i	97
CN(C)CCCCOc1cccc(Br)c1	32	-1.1	-3	95	0.99	i	100

# (listing goes on)
mol	INS promoter inh	GALR2 agonist	PKD1 inh	INS promoter inh cell count	HSV augment primary fold	HSV augment	RGS16-Gao
O=C(CN1C(=O)CCC1=O)Nc1ccc(Br)cc1	3	-1.1	-15	101	0.87	i	103
COc1ccc(S(=O)NC2CCCCC2)c(OC)c1C (centres undefined)	-8	-0.3	0	99	0.94	i	84
COc1cc(OC)cc(-c2nnc(SCC(=O)N(C(C)C)C(C)C)o2)c1	.	-0.2	0	.	1.1	i	100
CCN(c1ccccc1)S(=O)(=O)c1ccc(OC)c(NC(=O)c2cccs2)c1	0	.	8	99	1	i	102
COCCOc1ccc(C(F)(F)F)cc1NC(=O)c1ccc(F)cc1	13	-0.9	0	75	1	i	34
CCn1cc(C2=NOC(C(=O)O)C2)c(C)n1 (centres undefined)	9	-1.7	-14	111	0.94	i	103
N#Cc1ccccc1NC(=O)COC(=O)COc1ccccc1[N+](=O)[O-]	62	.	-1	123	0.92	i	113
CC(=O)N(C1=C(O)c2ccccc2C(=O)C1=O)C1CCCCC1	38	-1.0	3	112	1	i	138
CON(C)c1nc(NCC(C)C)nc(OCC#N)n1	.	-1.4	3	.	1.1	i	75
CCN(CC)Cc1c(O)ccc2c(-c3ccccc3)cc(=O)oc12	28	-1.3	16	67	0.92	i	101
Cc1ccc2[nH]c3c(=O)n(N)c(=O)[nH]c3c2c1	.	.	.	.	1.3	i	104
O=S(=O)(NCCc1cn2ccccc2n1)c1ccc(F)c(C(F)(F)F)c1	.	-3.0	9	.	0.88	i	135
Cc1ccc(C(=O)OCc2nnc(-c3ccccc3)o2)o1	-9	-0.3	-9	89	0.96	i	97
CCCCN(CCCC)CCCNC(=O)c1ccc2nc(-c3ccccc3NC(C)=O)c(=O)[nH]c2c1	12	.	-1	133	0.94	i	100
CCNc1nc(NCC)nc(OCCNS(=O)(=O)c2ccccc2)n1	.	.	.	.	1.1	i	105
CC(C)CCNC(=O)c1cccc(S(=O)(=O)N2CCc3ccccc32)c1	26	-0.8	-7	90	0.84	i	103
Cc1nc(-c2ccc(Cl)cc2)sc1C1(C)CC(c2c(Cl)cccc2Cl)=NO1 (centres undefined)	.	.	.	.	0.82	i	98
COc1ccc(C(=O)NCCN2CCOCC2)c(OC)c1OC	.	.	-6	.	1	i	104
CC(=O)NC(c1ccc(Cl)cc1)c1c(O)ccc2ccc(O)cc12 (centres undefined)	.	.	1	.	1	i	99
Cc1nc(SCC(=O)NC(=O)NC2CCCCC2)nc(C)c1C	.	.	-3	.	0.81	i	94
CCOC(=O)N/N=C(/C)c1ccc([N+](=O)[O-])o1	5	-0.7	-1	84	1.2	i	102
C(=C\c1ccncc1)/c1ccncc1	.	.	.	.	0.99	i	103
C=CCn1c(SCC(=O)Nc2ccc3c(c2)OCO3)nc2ccccc2c1=O	21	0.2	-14	52	0.83	i	112
Cc1cc(C)c2sc(NC(=O)c3ccc(N4C(=O)CCC4=O)cc3)nc2c1	.	.	.	.	1.1	i	103
COC(=O)Cc1ccc(NC(=S)NCc2ccccc2)cc1	.	-1.0	-4	.	1.2	i	95
COc1nc(-c2ccccc2)ccc1-c1noc(-c2ccccc2)n1	.	-2.0	-6	.	1	i	102
Cc1ccccc1Cn1ccc(NC(=O)c2cnn3c(C(F)(F)F)cc(-c4ccco4)nc23)n1	37	-2.1	-8	159	0.83	i	94
Cc1cc(C)cc(NC(=O)NCC(O)COc2ccc([N+](=O)[O-])cc2)c1 (centres undefined)	.	.	.	.	1.2	i	104
CCOC(=O)c1sc(N)c(C#N)c1COC(=O)CNC(=O)c1ccccc1	-36	-1.4	8	85	0.84	i	101
CCC1=C(OC(=O)N(CC)CC)N2C(=O)OC(=NCC3CC3)[C@]2(Cc2ccccc2)[C@H]2C1=CC[C@H]1C(=O)N(c3ccccc3)C(=O)[C@H]12	.	.	.	.	0.85	i	103
Cc1sc2ncnc(N)c2c1C	.	.	.	.	0.99	i	108
CN1CCCCc2c1nc1c(c2N)CCCC1	-10	-4.4	-6	119	0.96	i	101
CC1CCN(c2nc3c(c(=O)[nH]c(=O)n3C)n2CCCc2ccccc2)CC1	.	-0.6	-6	.	0.89	i	107
CCOc1ccccc1NC(=O)C1CCCN(C(=O)NCc2ccccc2)C1 (centres undefined)	46	-0.9	3	77	0.87	i	106
CCOc1ccc(NC(=O)CN2CCN(CC(=O)Nc3cc(OC)cc(OC)c3)CC2)cc1	25	-1.6	1	94	0.87	i	189
CCOC(=O)C1=C(C)N(CC(C)C)C(=O)/C1=C\c1ccc(OCC(=O)Nc2ccccc2)cc1	.	-2.6	-6	.	0.83	i	111
Cn1c(SCC(=O)OC2CCCCC2)nnc1-c1ccco1	62	-3.1	-6	124	1	i	101
CC(=O)N(CCCc1ccc(C(C)(C)C)cc1)CCCN(C)C	.	-2.5	-10	.	0.82	i	93
Brc1ccccc1-c1nnc(-c2cccnc2)o1	8	1.1	-9	107	0.99	i	100
CCOc1ccc2c(c1)C(C)=CC(C)(C)N2S(=O)(=O)c1ccc(C)cc1	-119	.	15	9	0.9	i	118
N#Cc1ccc(OCC(=O)N2CCN(S(=O)(=O)c3cccs3)CC2)cc1	.	-1.6	1	.	1.1	i	100
CC(N=c1ccccn1C(=O)Nc1ccc(F)cc1)c1ccco1 (centres undefined)	.	-1.8	3	.	1	i	101
Cc1ccc(NC(=O)/C=C/c2ccc3c(c2)OCO3)cc1S(=O)(=O)N1CCOCC1	20	-0.1	-4	212	0.79	i	104
CCOc1ccc(OCC)c(NC(=O)C2CCCN(S(=O)(=O)c3cccs3)C2)c1 (centres undefined)	-18	-0.1	-15	131	0.86	i	104
CC(=O)NC1=NN(C(C)=O)C2(CCCCC2)S1	-5	-1.2	-6	102	0.97	i	111
Cc1cc(C)c(C)c(S(=O)(=O)N2C(=S)NC(=O)C2CC(C)C)c1C (centres undefined)	-9	-2.5	3	120	1	i	102
COc1ccc(OC)c(-c2cc(C(=O)Nc3c(C)nn(Cc4ccc(Cl)cc4)c3C)no2)c1	-30	0.0	-12	132	.	.	104
Cn1c(CCNC(=O)c2ccco2)nc2cc(NS(=O)(=O)c3ccc(Cl)cc3)ccc21	.	-1.0	-3	.	0.9	i	112
COc1ccc(C)cc1-n1cnnn1	.	.	.	.	0.97	i	116
Cc1c(N=C2SCC(=O)N2/N=C/c2ccccc2Cl)c(=O)n(-c2ccccc2)n1C	5	-2.2	6	92	1.1	i	122
CN(C)c1nc(N)nc(Nc2ccccc2C#N)n1	.	-1.8	-19	.	0.86	i	104
COc1ccc(Cl)cc1NC(=S)N(Cc1cccnc1)Cc1ccco1	-33	.	1	71	0.94	i	109
Cn1cc(-c2ccccc2C(N)=O)c(=O)c2cc(Cl)ccc21	-67	.	-3	80	1.1	i	109
COc1ccc(/C(C)=N/NC(=O)c2ccc(CSc3nncn3C)cc2)cc1	.	.	2	.	0.85	i	101
C/C(=N\OCc1ccccc1C#N)c1cc2ccccc2o1	23	.	-4	94	1	i	101
Cc1cc(=O)oc(C)c1C(=O)Nc1ccc2ncccc2c1	50	-1.1	-6	76	.	?	97
CC(C)OC(=O)c1ccc(NC(=O)CSc2nc3ncccc3[nH]2)cc1	.	.	3	.	0.93	i	114
O=C1c2oc3ccccc3c(=O)c2C(c2ccc(O)cc2)N1c1nccs1 (centres undefined)	17	.	5	146	0.96	i	103
COc1ccccc1NC(=O)c1ccc(SCC(=O)NCc2ccccc2Cl)c([N+](=O)[O-])c1	-17	-1.3	-15	87	0.95	i	103
CCOC(=O)C(C)Sc1nnc(NC(=O)c2ccc(C)c([N+](=O)[O-])c2)s1 (centres undefined)	.	-2.1	-12	.	1.1	i	97
O=C(NCCN1CCOCC1)c1cccc(Cl)c1	-82	-1.5	-8	113	0.97	i	105

# Bioassay records from PubChem BioAssay.
